NOMO-1 viab = STK33 inhibitor candidate reducing NOMO-1 cell viability | NOMO-1 AML viability, CellTiter-Glo luminescence, 72 h | inhibition, % (no concentration beside the values) | actives 7.5% (n = 37,000) | AID 2330;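 active means most replicates above 80%; inconclusive means exactly half above 80%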;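 further: wells of about 30 µL received 25 nL stock; 0% = median of vehicle wells and 100% = reference inhibitor level; the first replicate is given; inactives centre near 10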
* = called active by the depositor; ? = inconclusive.

SMILES | NOMO-1 viab
C[C@H]1CN([C@@H](C)CO)C(=O)c2cccc(NC(=O)CCCCCC(=O)Nc3ccccc3N)c2O[C@H]1CN(C)C(=O)Nc1ccc(F)cc1 | 24.3
C[C@@H]1CN([C@H](C)CO)C(=O)Cc2cc(NC(=O)C3CC3)ccc2O[C@H]1CN(C)S(=O)(=O)c1cn(C)cn1 | 0.7
COc1ccc(C(=O)CSc2nc3nc(C)cc(C)c3c(=O)[nH]2)cc1OC | 4.8
O=C(CN1C(=O)c2ccccc2C1=O)Nc1ccc(NC(=O)c2ccco2)cc1 | 5.6
COc1ccc(NC(=O)Nc2ccc3c(c2)C(=O)N([C@@H](C)CO)C[C@H](C)[C@H](CN(C)Cc2ccc(C(F)(F)F)cc2)O3)cc1 | 24.3
CNC[C@H]1Oc2ccc(NC(=O)Nc3ccc(C(F)(F)F)cc3)cc2CC(=O)N([C@@H](C)CO)C[C@@H]1C | 16.7
COc1ccc(NC(=O)N(C)C[C@H]2Oc3c(cccc3N(C)C)C(=O)N([C@H](C)CO)C[C@H]2C)cc1 | 5.5
Cc1cccc(N(CC(=O)NC2CCCCCC2)S(C)(=O)=O)c1C | -2.3
C[C@H]1CN([C@@H](C)CO)C(=O)c2cc(NC(=O)Cn3cnnn3)ccc2O[C@H]1CN(C)C(=O)Nc1cccc2ccccc12 | -8.9
C[C@@H]1CN([C@H](C)CO)C(=O)c2cc(NC(=O)Cn3cnnn3)ccc2O[C@@H]1CN(C)Cc1ccc(C(=O)O)cc1 | 10.6
C[C@H](CO)N1C[C@H](C)[C@H](CN(C)C(=O)NC2CCCCC2)Oc2ccc(NC(=O)Nc3ccc(F)cc3)cc2CC1=O | 28.3
Cc1cc(C)c(S(=O)(=O)N(C)CC(=O)Nc2ccc(Cl)cc2Cl)c(C)c1 | 3.6
CCCC(=O)Nc1cccc(N)c1 | -32.1
C[C@H]1CN([C@@H](C)CO)C(=O)c2cc(N(C)C)ccc2O[C@@H]1CN(C)S(=O)(=O)c1ccc(Cl)cc1 | 14.3
O=C(CSc1nc(Nc2ccccc2)nc(N2CCOCC2)n1)Nc1ccccc1Cl | 13.3
COc1ccc(NC(=O)N(C)C[C@@H]2Oc3c(NS(=O)(=O)c4ccc(F)cc4)cccc3C(=O)N([C@@H](C)CO)C[C@@H]2C)cc1 | 2.8
C[C@H](CO)N1C[C@H](C)[C@@H](CN(C)S(=O)(=O)c2ccccc2)Oc2ccc(NS(=O)(=O)c3cccs3)cc2C1=O | -15.7
C[C@@H]1CN([C@H](C)CO)C(=O)c2cccc(NC(=O)c3cnccn3)c2O[C@@H]1CN(C)Cc1ccccc1 | 2.9
CCOc1c(OC)cccc1C1C(C(=O)Nc2ccccc2OC)=C(C)Nc2ncnn21 (stereo unspecified) | 14.7
COc1ccccc1-n1c(SCC(=O)Nc2ccccc2C)nc2ccc(I)cc2c1=O | -10.1
CC(C)NC(=O)Nc1ccc2c(c1)C(=O)N([C@@H](C)CO)C[C@@H](C)[C@@H](CN(C)Cc1ccc(-c3ccccc3)cc1)O2 | 22.1
O=C(COc1ccc(Br)cc1Cl)Nc1ccccc1CO | 15.7
COc1ccc(NC(=O)Cn2c(=O)n(-c3ccc(Cl)cc3)c(=O)c3c4c(sc32)CCCC4)cc1 | 11.4
CCOc1ccc(C2C3=C(CCCC3=O)Nc3ncnn32)cc1 (stereo unspecified) | -19.4
C[C@@H]1CN([C@@H](C)CO)C(=O)c2cc(NS(C)(=O)=O)ccc2O[C@H]1CN(C)C(=O)Nc1ccccc1 | 9.4
Cc1cc(Cl)ccc1OCCNS(=O)(=O)c1cc([N+](=O)[O-])ccc1C | 1.7
CC1OC(c2cc3oc(-c4ccccc4)cc(=O)c3c(O)c2O)CC(O)C1O (stereo unspecified) | 6.3
Cn1c(OCc2cccnc2)nc2c1c(=O)n(Cc1ccc(Cl)c(Cl)c1)c(=O)n2C | 27.8
Cc1occc1C(=O)NCCc1ccc(S(N)(=O)=O)cc1 | -2.2
C[C@@H]1CN([C@@H](C)CO)C(=O)Cc2cc(NC(=O)CCCN(C)C)ccc2O[C@@H]1CN(C)Cc1ccc(Oc2ccccc2)cc1 | 20.6
O=C(Nc1ccc(Cl)cc1C(=O)NCc1cccnc1)c1ccco1 | 6.0
COc1ccc(S(=O)(=O)N(C)C[C@@H]2Oc3ccc(NC(=O)C4CCCCC4)cc3CC(=O)N([C@H](C)CO)C[C@H]2C)cc1 | 20.1
CCS(=O)(=O)c1ccc2nc(SCC(=O)n3c4c(c5ccccc53)CCCC4)oc2c1 | 12.3
CS(=O)(=NS(=O)(=O)c1ccccc1C(F)(F)F)c1ccc(Cl)cc1 (stereo unspecified) | -2.7
C[C@@H]1CN([C@@H](C)CO)C(=O)Cc2cc(NC(=O)Nc3ccc4c(c3)OCO4)ccc2O[C@@H]1CN(C)S(=O)(=O)c1ccc(F)cc1 | 1.7
C[C@H]1CN([C@@H](C)CO)C(=O)c2cccc(NC(=O)c3cnccn3)c2O[C@H]1CN(C)C | 19.0
COc1ccc(-n2c(SCC(=O)N3CCOCC3)nnc2-c2ccccc2)cc1 | -23.6
CC1(C)CN=C(NC2CCCCC2)S1 | 3.9
COC(=O)c1cccc(C(=O)Nc2cnc3ccccc3c2)n1 | 123.4*
O=C(O)c1cc2cccc(S(=O)(=O)N3CCCCCC3)c2cc1O | -17.1
C[C@@H]1CN([C@H](C)CO)C(=O)c2cccc(NC(=O)Nc3ccc(C(F)(F)F)cc3)c2O[C@@H]1CN(C)CC1CCCCC1 | 57.8
Cc1ccc(Cc2cc(C)n[nH]c2=O)cc1 | -6.3
Cc1noc(C)c1S(=O)(=O)N(C)C[C@H]1Oc2ccc(NC(=O)Cn3cnnn3)cc2CC(=O)N([C@H](C)CO)C[C@H]1C | 17.3
Cc1noc(C)c1NC(=O)Nc1ccc2c(c1)C(=O)N([C@@H](C)CO)C[C@H](C)[C@H](CN(C)C(=O)Nc1cccc3ccccc13)O2 | -7.9
C[C@H]1CN([C@@H](C)CO)C(=O)c2cc(NC(=O)Nc3cccc4ccccc34)ccc2O[C@H]1CN(C)CC1CCCCC1 | 24.5
CC(CO)(CO)NC(=O)NC1CCCCC1 | 6.0
O=C(CCCN1C(=O)c2cccc3cccc(c23)C1=O)Nc1ccccc1[N+](=O)[O-] | 6.1
CS(=O)(=NS(=O)(=O)c1ccc(OC(F)(F)F)cc1)c1ccc(Cl)cc1 (stereo unspecified) | -17.3

Of the compounds above, 2 have a nitro group on carbon.
SMILES | NOMO-1 viab
Cc1cc(Cl)ccc1OCCNS(=O)(=O)c1cc([N+](=O)[O-])ccc1C | 1.7
O=C(CCCN1C(=O)c2cccc3cccc(c23)C1=O)Nc1ccccc1[N+](=O)[O-] | 6.1

Next section:
SMILES | NOMO-1 viab
Cn1c(SCC(=O)n2c3c(c4ccccc42)CCCC3)nnc1-c1cccc([N+](=O)[O-])c1 | -20.8
COc1ccc(S(=O)(=O)Nc2cccc3c2O[C@H](CN(C)C(=O)Nc2c(C)noc2C)[C@@H](C)CN([C@H](C)CO)C3=O)cc1 | 7.5
O=C(Nc1ccc(F)cc1)c1cnccc1C(F)(F)F | 11.2
COC(=O)CSc1nc2sc3c(c2c(=O)n1Cc1ccccc1)CCCC3 | 0.8
C[C@@H]1CN([C@@H](C)CO)C(=O)c2cc(N(C)C)ccc2O[C@@H]1CN(C)Cc1ccc2c(c1)OCO2 | 2.5
CC(C)(C)C(=O)CC(Nc1ccccc1)c1ccc(Cl)cc1 (stereo unspecified) | -14.8
C[C@@H]1CN([C@H](C)CO)C(=O)c2cccc(NC(=O)Nc3ccccc3)c2O[C@H]1CN(C)Cc1ccc(C(=O)Nc2ccccc2N)cc1 | 138.8*
COc1ccc(CN(C)C[C@H]2Oc3ccc(NS(=O)(=O)c4cn(C)cn4)cc3C(=O)N([C@H](C)CO)C[C@H]2C)cc1 | 4.2
C[C@H]1CN([C@@H](C)CO)C(=O)c2cc(NC(=O)Nc3ccccc3)ccc2O[C@H]1CN(C)S(=O)(=O)c1ccc(F)cc1 | 18.5
Cc1cc(C)c2nc(-c3ccccn3)cc(C(=O)Nc3cccc(Cn4cccn4)c3)c2c1 | 13.5
C[C@H]1CN([C@@H](C)CO)C(=O)Cc2cc(NC(=O)Nc3cccc4ccccc34)ccc2O[C@@H]1CN(C)CC1CCCCC1 | 135.8*
COc1ccc(CN(C)C[C@H]2OCCCC[C@@H](C)Oc3ccc(NC(=O)C4CCCCC4)cc3C(=O)N([C@H](C)CO)C[C@@H]2C)cc1 | 19.1
COC(=O)c1ccc(C(=O)NN)cc1 | 17.4
Cc1cc(C)c(C#N)c(SCC(=O)Nc2ccc(C(N)=O)cc2)n1 | 11.1
CC(C)NC(=O)N(C)C[C@H]1Oc2c(NC(=O)Nc3ccccc3)cccc2C(=O)N([C@H](C)CO)C[C@@H]1C | 3.1
C[C@@H]1CN([C@H](C)CO)C(=O)c2cc(NS(=O)(=O)c3ccccc3)ccc2O[C@H]1CN(C)C(=O)Nc1ccc(C(F)(F)F)cc1 | 12.1
O=C(CCc1nc2ccccc2[nH]1)Nc1cccc(C(F)(F)F)c1 | -2.9
Cc1ccc(S(=O)(=O)Nc2ccc3c(c2)C(=O)N([C@@H](C)CO)C[C@H](C)[C@H](CN(C)C(=O)Nc2ccc(F)cc2)O3)cc1 | 7.4
O=[N+]([O-])c1ccc2nc(CSc3nc4ccccc4o3)[nH]c2c1 | 45.0
C[C@@H]1CN([C@H](C)CO)C(=O)c2cccc(NS(=O)(=O)c3ccc(F)cc3)c2O[C@@H]1CN(C)S(=O)(=O)c1ccc(F)cc1 | 70.2
CS(=O)(=NC(=O)Nc1ccccc1)c1ccccc1 (stereo unspecified) | 11.3
Cc1cc(C)c(NC(=O)CN(c2ccc(Cl)cc2)S(C)(=O)=O)c(C)c1 | 7.9
C[C@@H]1CN([C@H](C)CO)C(=O)c2cccc(N(C)C)c2O[C@@H]1CN(C)Cc1ccccc1 | 12.8
CNC[C@H]1Oc2ccc(NC(=O)Nc3ccc4c(c3)OCO4)cc2C(=O)N([C@H](C)CO)C[C@H]1C | 10.3
COc1ccc(NC(=O)COc2ccccc2)cc1NC(=O)c1ccco1 | -4.9
Cc1noc(C)c1S(=O)(=O)Nc1ccc2c(c1)CC(=O)N([C@@H](C)CO)C[C@@H](C)[C@@H](CN(C)S(C)(=O)=O)O2 | -25.6
C[C@@H]1CN([C@@H](C)CO)C(=O)c2cccc(NC(=O)NC3CCCCC3)c2O[C@H]1CN(C)S(=O)(=O)c1cccs1 | -1.0
C=CCNC(=S)NC1(C)CCS(=O)(=O)C1 (stereo unspecified) | 0.7
COc1ccc(C)cc1S(=O)(=O)N1CCC(C(=O)Nc2cccc(SC)c2)CC1 | 29.2
Cc1ccc(S(=O)(=O)N(C)C[C@H]2Oc3ccc(NS(=O)(=O)c4cn(C)cn4)cc3CC(=O)N([C@@H](C)CO)C[C@@H]2C)cc1 | 15.8
CCOC(=O)c1c(NC(=O)c2nc3ncccn3n2)sc2c1CCC(CC)C2 (stereo unspecified) | -4.3
CN(C)/C=N/C1N=C(C2CC2)N(C)C(=O)N1 (stereo unspecified) | 13.0
Cc1c(CCC(=O)O)c(=O)oc2cc(OCC(=O)O)ccc12 | 10.1
C[C@H](CO)N1C[C@H](C)[C@H](CN(C)Cc2ccc(-c3ccccc3)cc2)Oc2c(NC(=O)NC3CCCCC3)cccc2C1=O | 53.0
Cc1nn(C)cc1CNC(=O)c1cnn2c(C(F)F)cc(C3CC3)nc12 | 23.9
C[C@H]1CN([C@@H](C)CO)C(=O)c2cc(NS(=O)(=O)c3cccs3)ccc2O[C@H]1CN(C)CC1CCCCC1 | 12.8

Some of the entries so far, field by field:
CCOC(=O)c1c(NC(=O)c2nc3ncccn3n2)sc2c1CCC(CC)C2 (stereo unspecified)
  NOMO-1 viab: -4.3
CN(C)/C=N/C1N=C(C2CC2)N(C)C(=O)N1 (stereo unspecified)
  NOMO-1 viab: 13.0
Cc1c(CCC(=O)O)c(=O)oc2cc(OCC(=O)O)ccc12
  NOMO-1 viab: 10.1
C[C@H](CO)N1C[C@H](C)[C@H](CN(C)Cc2ccc(-c3ccccc3)cc2)Oc2c(NC(=O)NC3CCCCC3)cccc2C1=O
  NOMO-1 viab: 53.0

(further entries)
SMILES | NOMO-1 viab
C[C@H](CO)N1C[C@H](C)[C@@H](CN(C)S(=O)(=O)c2ccc(F)cc2)Oc2ccc(NC(=O)Cc3cn(C)c4ccccc34)cc2C1=O | -24.9
N#C[C@@H]1O[C@H](COC(=O)c2ccccc2)[C@@H](OC(=O)c2ccccc2)[C@H]1OC(=O)c1ccccc1 | 14.0
Cc1noc(C)c1NC(=O)Nc1cccc2c1O[C@@H](CN(C)Cc1ccc(C(F)(F)F)cc1)[C@H](C)CN([C@@H](C)CO)C2=O | 16.7
Cc1ccc(S(=O)(=O)N(C)CC(=O)Nc2cccc(I)c2)cc1 | 2.1
COc1ccc(NC(=O)CSc2nc(C)cc(C(F)(F)F)n2)c([N+](=O)[O-])c1 | 0.0
Cc1noc(C)c1S(=O)(=O)Nc1ccc2c(c1)CC(=O)N([C@@H](C)CO)C[C@H](C)[C@@H](CN(C)Cc1ccc3c(c1)OCO3)O2 | -0.6
COc1ccc(S(=O)(=O)N(C)C[C@@H]2Oc3ccc(NS(=O)(=O)c4ccc(F)cc4)cc3CC(=O)N([C@H](C)CO)C[C@@H]2C)cc1 | 0.4
Cc1cccc(-n2c(SCC(=O)Nc3ccc(Br)cc3F)nnc2-c2ccccc2)c1 | ?
Cc1noc(C)c1S(=O)(=O)N(C)C[C@H]1OCCCC[C@@H](C)Oc2ccc(N(C)C)cc2C(=O)N([C@H](C)CO)C[C@@H]1C | 25.3
Cc1cc(C(=O)Nc2cccc3c2O[C@@H](CN(C)Cc2ccccc2)[C@H](C)CN([C@H](C)CO)C3=O)n(C)n1 | 74.5
Clc1ccc(-c2nc(Sc3nc(-c4cccs4)ns3)n[nH]2)cc1 | 10.6
C[C@@H]1CN([C@H](C)CO)C(=O)c2cc(NS(=O)(=O)c3cccs3)ccc2O[C@H]1CN(C)S(C)(=O)=O | -11.0

Screening data deposited in PubChem by Broad Institute.

This is a subset. The share of hits here may be higher or lower than overall.
